# E coli growth: E. coli growth inhibition, primary screen, OD600; Escherichia coli growth, 23 h; active compounds read low; 330,000 compounds, 0.21% hits; OD600 absorbance (concentration not given with the values);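 active means OD600 absorbance below the run mean of sample wells minus 3.6 SD, in any replicate, cut at about 0.56 in these data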;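 further: stock transfer was 300 nL into about 60 µL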
# ALR inh: inhibitors of human ALR sulfhydryl oxidase, primary screen, biochemical, H2O2 detection, HRP-luminol luminescence, single point | inhibition, % (no concentration beside the values) | purified ALR, DTT oxidation | 290,000 compounds, 3.8% hits;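 active means mean and each replicate at 75% or more; inconclusive means only one of the two met; inactive means neither met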;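 further: stock transfer was 7.5 nL into about 7.5 µL; 0% = neutral wells and 100% = wells with inactivated enzyme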
# Target sequence (P55789 whole entry, looked up): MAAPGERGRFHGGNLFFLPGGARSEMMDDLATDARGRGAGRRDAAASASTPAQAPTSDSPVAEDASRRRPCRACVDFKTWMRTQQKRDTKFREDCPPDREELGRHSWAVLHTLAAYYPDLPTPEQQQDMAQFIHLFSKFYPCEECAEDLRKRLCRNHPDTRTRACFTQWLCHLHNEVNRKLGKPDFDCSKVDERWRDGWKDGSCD
# rRNA inh HTS: reduced GFP signal of wild-type E. coli, primary screen, bacterial rRNA inhibitor project, GFP/RFP fluorescence, OD600, single point | GFP signal change (wild-type ribosome), % (no concentration beside the values) | 350,000 compounds, 1.6% hits | E. coli WT GFP vs humanized-ribosome RFP mutants, 24 h; active compounds read low; DMSO median 0, no signal -100 | AID 720706, 2013;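 active means significant combined selectivity score with lowered wild-type GFP, culture density cut under 30%, mutant RFP and density less affected; inactive means any of these conditions unmet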; further: one replicate is shown; some compounds called inactive have numbers as strong as hits
# Vif TR-FRET: inhibitors of Vif binding to APOBEC3G peptide, primary screen, biochemical, TR-FRET, GST-Vif 1-94, biotin-A3G peptide, dose response retest (AID 1117319); 260,000 compounds, 0.57% hits; inhibition, %; hits with a dose series show IC50 in µM; TR-FRET GST-Vif / biotin-A3G peptide binding; higher % means a stronger effect; test concentration not given here; strong numbers were not always called active; Virion infectivity factor (Human immunodeficiency virus type 1 group M subtype B (isolate …;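 active means above the screen mean plus three standard deviations and confirmed in dose response; inconclusive means results disagree or hit not tested in dose response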;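 further: Vif residues 1-94 fused to GST binding biotinylated APOBEC3G peptide 110-148; 0% = full assay without inhibitor and 100% = GST in place of GST-Vif; retest series ran down from 100 µM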
# FGF22 binding: binders of human FGF22 protein, primary screen, FGF22 synaptogenesis inhibitor project, biophysical, thermal shift, single point. recombinant FGF22 thermal shift, SYPRO orange fluorescence; percent of sucrose octasulfate shift, DMSO zero. calls only at 9.99 µM. 340,000 compounds, 1.5% hits;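 active means melting point raised past a set limit in the mean and every replicate; inconclusive means no clear call; three in four hits are not shown here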
# Target sequence (Q9HCT0 whole entry, looked up): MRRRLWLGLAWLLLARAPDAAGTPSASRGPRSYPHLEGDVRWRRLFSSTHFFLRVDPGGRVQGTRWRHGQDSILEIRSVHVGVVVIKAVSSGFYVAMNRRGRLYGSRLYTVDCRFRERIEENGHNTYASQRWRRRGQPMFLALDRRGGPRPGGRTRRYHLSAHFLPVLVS
# MLL AF4-AF9 inh: inhibitors of AF4 peptide binding to AF9, primary screen, biochemical, AlphaScreen, biotin-AF4 peptide, FLAG-AF9, single point | inhibition, % at 10 µM | AID 651704, 2012 | 350,000 compounds, 0.47% hits | Protein AF-9 (Homo sapiens), P42568;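 active means every replicate reaching a set inhibition limit, whatever the replicate mean, cut at about 25% in these data; inconclusive means mean inhibition reaches that limit but some replicates miss it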;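 further: 0% = plate neutral control median and 100% = total signal loss; the record names both 10 and 1 µM as test concentration; the first replicate is given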
# Target sequence (P42568 whole entry, looked up): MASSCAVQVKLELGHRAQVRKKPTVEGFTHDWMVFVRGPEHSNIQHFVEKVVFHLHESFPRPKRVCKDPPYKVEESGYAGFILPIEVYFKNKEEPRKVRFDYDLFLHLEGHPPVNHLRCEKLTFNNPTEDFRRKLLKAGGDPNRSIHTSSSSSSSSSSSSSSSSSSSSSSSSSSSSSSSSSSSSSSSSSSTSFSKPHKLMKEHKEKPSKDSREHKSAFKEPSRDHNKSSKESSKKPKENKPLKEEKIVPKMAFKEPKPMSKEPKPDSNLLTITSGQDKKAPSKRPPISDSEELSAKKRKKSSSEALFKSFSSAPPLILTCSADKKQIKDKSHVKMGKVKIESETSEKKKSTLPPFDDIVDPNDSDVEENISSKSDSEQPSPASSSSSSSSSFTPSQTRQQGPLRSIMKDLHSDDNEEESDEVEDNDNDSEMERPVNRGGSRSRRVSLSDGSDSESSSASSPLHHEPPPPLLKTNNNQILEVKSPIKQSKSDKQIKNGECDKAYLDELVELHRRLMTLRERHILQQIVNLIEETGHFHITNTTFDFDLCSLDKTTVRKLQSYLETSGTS
# HNF4A DNA FP: change in binding of human HNF4A to DNA, primary screen, biochemical, fluorescence polarization, FITC-DNA | AID 1224865, 2016 | 1 h | 360,000 compounds, 0.3% hits | activity change, % at 10 µM; in the data active means activity change above about 30%, passing the limit was not always enough;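 further: controls were the assay level and a saturating level of protein; the project sought stronger binding though the title names inhibitors; some compounds called inactive have numbers as strong as hits; positive values seem to mean higher polarization but the record does not say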
# rRNA inh HTS OD600: second read-out of rRNA inh HTS, no call of its own (marks repeat the call); OD600 change, %; measured here: OD600 growth;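 optical density of the mix in the first replicate; 0 = DMSO median and -100 = no signal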
# rRNA inh HTS RFP: recorded beside rRNA inh HTS, whose call it bears; RFP signal change, %; measured here: RFP humanized mutant strains;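 first replicate; 0 = DMSO median and -100 = no signal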
# An asterisk follows results filed as active; i = inactive; u = inconclusive; x = not tested or not shown; + = active, no number; & = joins results of further samples. Only part of the results is shown; the hit share may differ from the screen's.
# Values run as follows: rRNA inh HTS RFP, rRNA inh HTS OD600, Vif TR-FRET, E coli growth, MLL AF4-AF9 inh, HNF4A DNA FP, rRNA inh HTS, ALR inh, FGF22 binding
Cc1ccc(NC(=O)CN(C)C(=O)c2n[nH]c(=O)c3ccccc23)cc1
  3.0, 7.1, x, 0.689, -21.3, -1.1, 5.0, 2.1, i
CC(=O)Nc1ccc(-c2csc(NCCc3ccccc3)n2)cc1
  1.9, -6.8, -3.0%, 0.692, -0.5, 1.9, -10.4, x, i
CCCN1C[C@H](C)[C@H](OC)CN(C)C(=O)c2cc(NC(=O)c3cccc(F)c3)ccc2OC[C@@H]1C
  -0.6, 1.9, x, x, 0.0, x, 0.6, x, i
Cc1ccc(C#N)c(SCc2cc3c(cc2Cl)OCO3)n1
  x, x, 9.8%, 0.733, x, -1.1, x, -2.7, x
CN(CCC#N)C(=O)COC(=O)c1ccc2c(=O)n3c(nc2c1)CCC3
  4.5, 30.6, x, 0.689, -1.6, 5.0, 38.1, -2.7, i
CCN(C(=O)COC(=O)CNC(=O)c1ccc2ccccc2c1)C1CCS(=O)(=O)C1 (configuration not stated)
  3.9, -3.2, 11.8%, 0.69, -1.6, -3.3, 11.7, -12.9, i
Cc1ccc(C)c(CSc2nnc(CCN)o2)c1
  x, x, -3.1%, 0.694, x, 0.3, x, -31.6, x
CC(C)(C)c1ccc(S(=O)(=O)NCc2ccc(C(=O)NCc3ccccn3)cc2)cc1
  9.2*, -14.0*, 67.1%, 0.624, -2.5, -0.5, -25.5*, -5.7, i
COc1ccc(Br)cc1CN1CCCCCC1
  0.9, 7.5, 3.0%, x, -0.6, 2.2, 21.9, 1.5, i
COc1ccc(S(=O)(=O)N(C)C[C@H]2Oc3c(NS(=O)(=O)c4ccc(C)cc4)cccc3C(=O)N([C@H](C)CO)C[C@H]2C)cc1
  2.7, -11.7, x, x, -0.3, x, -2.1, x, i
C=CCOc1ccc(/C=N/NC(=O)CN2CCOCC2)cc1OCC
  -0.9, 11.7, -5.6%, x, -3.7, 0.9, 13.8, -7.7, i
COc1ccccc1OCC(=O)N1CCCCCCC1
  1.8, 7.2, x, 0.709, 2.6, 0.1, -0.4, -2.4, i
CO[C@H]1CN(C)C(=O)c2cc(NC(=O)C3CC3)ccc2OC[C@H](C)N(Cc2cccc(F)c2)C[C@H]1C
  0.4, -14.8, x, x, 4.6, x, -5.4, x, i
Cc1c(NC(=O)CS(=O)(=O)c2ccccc2)c(=O)n(-c2ccccc2)n1C
  -4.7, -39.3, -6.8%, 0.736, 1.0, -2.2, -19.8, -4.1, i
O=C(CSc1nnnn1Cc1ccccc1)Nc1cccc(F)c1
  9.2, 0.4, x, 0.67, 2.0, 1.5, -14.3, x, i
Cc1ccc(OCCNC(=O)c2cccc(S(=O)(=O)N3CCN(C)CC3)c2)cc1
  x, x, -4.3%, 0.666, -1.9, -1.6, x, -4.9, i
C[C@@H]1CCCCO[C@@H](CN(C)Cc2ccc3c(c2)OCO3)[C@@H](C)CN([C@H](C)CO)C(=O)c2cc(N(C)C)ccc2O1
  4.3&0.8, -9.6&-6.3, 4.5%, x, 15.4&1.9&18.4, 2.6, 3.9&-1.3, x, i
CCCCC1(C)NC(=O)N(CC(=O)Nc2ccc(S(=O)(=O)N3CCOCC3)cc2)C1=O (configuration not stated)
  x, x, 6.9%&-2.7%, 0.738, x, -3.0, x, -15.1, x
CCN(CCn1cccn1)C(=O)CCc1nnc(C2(c3ccc(Cl)cc3)CCC2)o1
  1.4, 1.2, -2.1%, 0.643, -0.8, 5.2, 10.7, 13.2, i
O=C(O)CCC(=O)NNC(=O)c1ccc(Br)cc1
  x, x, 4.5%, x, -3.8, -5.3, x, x, i

# In a second layout: three of the compounds above.
> Cc1ccc(C#N)c(SCc2cc3c(cc2Cl)OCO3)n1
  rRNA inh HTS RFP = x | rRNA inh HTS OD600 = x | Vif TR-FRET = 9.8% | E coli growth = 0.733 | MLL AF4-AF9 inh = x | HNF4A DNA FP = -1.1 | rRNA inh HTS = x | ALR inh = -2.7 | FGF22 binding = x
> CN(CCC#N)C(=O)COC(=O)c1ccc2c(=O)n3c(nc2c1)CCC3
  rRNA inh HTS RFP = 4.5 | rRNA inh HTS OD600 = 30.6 | Vif TR-FRET = x | E coli growth = 0.689 | MLL AF4-AF9 inh = -1.6 | HNF4A DNA FP = 5.0 | rRNA inh HTS = 38.1 | ALR inh = -2.7 | FGF22 binding = i
> CCN(C(=O)COC(=O)CNC(=O)c1ccc2ccccc2c1)C1CCS(=O)(=O)C1 (configuration not stated)
  rRNA inh HTS RFP = 3.9 | rRNA inh HTS OD600 = -3.2 | Vif TR-FRET = 11.8% | E coli growth = 0.69 | MLL AF4-AF9 inh = -1.6 | HNF4A DNA FP = -3.3 | rRNA inh HTS = 11.7 | ALR inh = -12.9 | FGF22 binding = i

# The list continues.
# Values run as follows: rRNA inh HTS RFP, rRNA inh HTS OD600, Vif TR-FRET, E coli growth, MLL AF4-AF9 inh, HNF4A DNA FP, rRNA inh HTS, ALR inh, FGF22 binding
CC(C)Cn1c(-c2cc(Br)ccc2F)nc2c1c(=O)[nH]c(=O)n2CC(C)C
  4.0, -7.7, x, 0.671, 3.4, 0.0, 4.2, x, +
O=C(Nc1cccc([N+](=O)[O-])c1)c1ccccc1
  -1.7, 5.8, 22.1%, 0.707, -0.1, -2.5, 8.8, -6.0, i
Cc1ccsc1C(=O)N1CCCCCC1(C)C(=O)NCC(C)C (configuration not stated)
  4.1, 11.4, x, x, -6.6, 2.6, 2.9, x, i
Cc1ccn2cc(C(=O)N3CCCC(Nc4ccc(F)cc4)C3)nc2c1 (configuration not stated)
  2.4, -2.9, x, 0.728, -1.2, 7.5, 4.3, 65.9, i
CN1C/C(=C/c2cccs2)C(=O)/C(=C\c2cccs2)C1
  0.4, -13.4, x, 0.68, 18.2, 2.8, -11.6, x, i
Cc1sc2ncn(CC(=O)N3CCCC(C)C3)c(=O)c2c1S(=O)(=O)N1CCCCC1 (configuration not stated)
  1.5, 2.9, x, 0.65, -4.3, 0.9, 6.8, -0.9, i
COC(=O)CC(N)c1ccc(OC)c2ccccc12 (configuration not stated)
  x, x, -3.7%, 0.733, x, 5.1, x, -3.6, x
Cc1cc(SC(C)C(=O)NCC(=O)Nc2ccc(F)c(F)c2F)nc2ccccc12 (configuration not stated)
  2.2, 10.1, -20.1%, 0.701, 2.4, 0.1, 13.8, x, i
O=C(Nc1cccc(Cl)c1)N1C[C@H]2[C@@H](c3ccccc31)[C@@H](CO)N2C(=O)C1CC1
  7.1, -21.2, x, x, -21.7, x, -17.9, x, i
Nc1c(C(=O)Nc2ccc(Cl)cc2)sc2nc(N3CCOCC3)c3c(c12)CCCC3
  1.8, -18.1, -5.6%, 0.745, -1.6, 1.6, 0.0, 2.1, i
COc1ccccc1CC1CC(=O)N(c2ccccc2)C1=O (configuration not stated)
  0.9, 11.0, x, 0.64, -5.6, -2.5, 11.8, x, i
Cc1ccc(C(=O)Nc2nnc(C3=COCCO3)o2)cc1C
  -11.5, -59.4, 20.8%, x, -0.6, 0.7, -39.8, -10.5, i
COc1cccc(NC(=O)N(C)C[C@@H]2Oc3cc(-c4cccc(C(=O)N(C)C)c4)ccc3S(=O)(=O)N([C@H](C)CO)C[C@@H]2C)c1
  0.8, -0.9, x, x, -1.4, x, -5.2, x, i
CCS(=O)(=O)N1CCC2(CC1)CN(C(=O)c1ccc(F)cc1)[C@H](CO)c1[nH]c3cc(OC)ccc3c12
  3.0, 5.1, x, x, 2.1, x, 0.8, x, i
C=CCNCC(=O)Nc1ccccc1SCC(=O)Nc1ccsc1C(=O)OC
  -0.3, -4.9, -3.0%, 0.661, -0.9, 0.1, -3.8, 0.9, i
Cc1cccc(S(=O)(=O)N(C)C[C@@H]2OCc3ccccc3-c3ccccc3C(=O)N([C@H](C)CO)C[C@@H]2C)c1
  3.4, -2.0, x, x, 1.9, x, -1.0, x, i
COc1ccc(S(=O)(=O)N2CCN(C(=O)c3cc(C)oc3C)CC2)cc1OC
  -1.1, 2.8, 7.5%, 0.691, 1.5, 0.2, -1.5, -4.7, i
COCCn1c(SCC(=O)Nc2cc(C)on2)nc2c([nH]c3ccccc32)c1=O
  -1.0, 13.8, 1.8%, x, -2.7, 0.1, 4.1, x, i
CCOc1ccc(N/C(SC)=C(/C#N)C(N)=O)cc1
  x, x, 1.5%, 0.731, x, 2.0, x, 0.9, x
COc1ccc(NC(=O)Nc2ccc3c(c2)C(=O)N([C@H](C)CO)C[C@H](C)[C@@H](CN(C)C(=O)c2ccccc2)OCCCC[C@H](C)O3)cc1
  -0.2, -4.2, x, x, -0.6, x, -2.8, x, i
CC1=CN2C(=N)/C(=C/c3ccco3)C(=O)N=C2S1
  11.9, 16.6, 14.9%, 0.722, 1.2, 0.7, 18.3, 11.0, i
COc1ccc(CN(C)C[C@H]2Oc3ccc(NC(=O)Cc4cn(C)c5ccccc45)cc3C(=O)N([C@@H](C)CO)C[C@@H]2C)cc1
  0.6, -0.5, x, x, 5.5, x, 1.0, x, i
COc1ccc(C=C(C(=O)c2ccccc2)C(=O)c2ccccc2)cc1
  -10.1, -40.2, x, x, 7.3, 0.3, -17.6, x, i
C[C@H](CO)N1C[C@H](C)[C@@H](CN(C)Cc2ccc(C(F)(F)F)cc2)OCCCC[C@H](C)Oc2ccc(NC(=O)c3ccncc3)cc2C1=O
  -4.7, 2.8, x, x, -0.5, x, -2.7, x, i
COc1ccc(CNC2CCSc3ccccc32)cc1OC (configuration not stated)
  0.4, 6.8, -5.4%, 0.631, 5.5, 15.4, 12.9, 2.8, i
CCn1nnnc1SCC(=O)N1CCOCC1
  x, x, -2.0%, 0.746, x, 1.2, x, -5.6, x
CN1CCN(C(=O)C[C@@H]2CC[C@H]3[C@@H](COC[C@H](O)CN3Cc3ccc(Oc4ccccc4)cc3)O2)CC1
  -1.4, 4.9, x, x, 2.5, x, -5.1, x, i
O=C(NCCc1ccncc1)[C@H]1[C@H](CO)[C@H]2Cn3c(ccc(-c4ccc(F)cc4)c3=O)[C@@H]1N2
  0.5, -2.5, x, x, -41.4, x, -0.8, x, i
C[C@H]1CN([C@@H](C)CO)C(=O)Cc2cc(NC(=O)Nc3ccc(F)cc3)ccc2O[C@@H]1CN(C)Cc1ccccc1
  15.4, -55.9, x, x, 1.5, x, -26.7, x, i
CCOC(=O)c1ccc(NC(=O)COc2ccc(CNC3CCCCC3)cc2OC)cc1
  31.0, -42.2, -6.0%, 0.631, 2.8, 0.4, -4.6, 0.8, i
O=C(CCC1CCN(Cc2ccccc2Cl)CC1)NC1CC1
  2.9, 10.0, x, 0.682, 1.2, 4.7, 14.2, x, i
COc1cccc(Cn2nc(C(=O)O)c3ccccc3c2=O)c1
  0.4, 4.5, 23.9%, 0.74, -1.4, -2.0, -0.7, u, i
O=C(NCCO)c1ccc(-c2nnc(N3CCOCC3)c3ccccc23)cc1
  x, x, 4.8%, 0.72, x, 2.0, x, -7.5, x
CC(C)NC(=O)Nc1ccc2c(c1)C(=O)N([C@H](C)CO)C[C@@H](C)[C@@H](CN(C)S(=O)(=O)c1ccccc1)OCCCC[C@H](C)O2
  0.8, -0.7, x, x, -0.5, x, -4.8, x, i
Nc1nnc(CC2=CCCCC2)s1
  x, x, 73.3%, 0.709, x, -2.2, x, -13.7, x

# Bioassay records from PubChem.
